Six1-Eya2 inh: Six1/Eya2 interaction inhibition | Q15475+O00167 | AlphaScreen GST-Six1/His-Eya2 binding, biochemical; stronger effect = lower value; control for the full effect not named in the record | activity change, % (no concentration beside the values) | hit rate 0.56% among 360,000 | AID 651725; in the data active = activity change below about -65%; inconclusive = about -30% to -65%; inactive = above about -30%; also: % is scaled to controls: 0 for no effect and ±100 for the full control effect; compound concentration not given in the record
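AlphaScreen luminescence read after one hour at 37 °C in darkness. Pin-transferred compounds met GST-Six1 and His-Eya2 protein (5X stock 250 nM/500 nM) plus glutathione donor and Ni-chelate acceptor beads (5X, 50 ug/mL).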
TRPML1 blocker: inhibitors of human TRPML1 channel. Q9GZU1. activity change, negative = inhibition, % (test concentration not listed). hit rate 0.02% among 390,000. TRPML1-inducible cells, Ca2+ dye fluorescence, FDSS; stronger effect = lower value; inhibition of EC80 agonist-evoked calcium signal. AID 624415; in the data active means activity change below about -50%; inconclusive means about -30% to -50%; inactive means above about -30%;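 also: stimulus is agonist 54-4 at its EC80 concentration; % is scaled to controls: 0 for no effect and ±100 for the full control effect; compound concentration not given in the record; the text of the record puts the active cut at -80%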
Target sequence (Q9GZU1 whole entry, looked up): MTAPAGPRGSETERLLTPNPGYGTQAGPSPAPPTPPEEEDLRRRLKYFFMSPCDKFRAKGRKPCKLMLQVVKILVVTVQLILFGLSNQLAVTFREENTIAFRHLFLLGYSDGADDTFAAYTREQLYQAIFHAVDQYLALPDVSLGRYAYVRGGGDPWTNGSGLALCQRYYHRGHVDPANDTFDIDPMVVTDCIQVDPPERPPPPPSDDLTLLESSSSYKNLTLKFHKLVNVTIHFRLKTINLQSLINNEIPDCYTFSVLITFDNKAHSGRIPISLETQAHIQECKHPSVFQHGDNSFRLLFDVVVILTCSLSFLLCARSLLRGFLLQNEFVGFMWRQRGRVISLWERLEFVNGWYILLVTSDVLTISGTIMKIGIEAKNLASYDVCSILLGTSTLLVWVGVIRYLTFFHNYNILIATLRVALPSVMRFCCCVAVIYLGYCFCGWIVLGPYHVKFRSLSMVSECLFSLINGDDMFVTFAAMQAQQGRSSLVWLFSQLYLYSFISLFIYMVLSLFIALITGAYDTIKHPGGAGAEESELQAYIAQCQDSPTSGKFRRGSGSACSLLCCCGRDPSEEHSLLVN
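Calcium fluorescence in TRPML1-DL cells induced overnight with Tet: a 110 s read after compound pin addition, then a 110 s antagonist read after challenge with 54-4 at 4 uM final (EC80).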
CtBP-E1A blk: blocks the CtBP interaction with E1A | hit rate 0.49% among 340,000 | AlphaScreen GST-E1A/His-CtBP binding, 1536-well; stronger effect = lower value; control for the full effect not named in the record | activity change, % (test concentration not listed); in the data active means activity change below about -65%; inconclusive means about -30% to -65%; inactive means above about -30%; also: % is scaled to controls: 0 for no effect and ±100 for the full control effect; compound concentration not given in the record
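Homogeneous bead-based format: GST-tagged E1A captured on glutathione donor beads, His-tagged CtBP on nickel acceptor beads; compounds precede bead addition by 2 h at 37 °C.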
D2 PAM: human D2 receptor positive allosteric modulation; P14416; DiscoveRx D2 beta-arrestin cells, luminescence, 90 min; 100% = 57 uM dopamine signal; potentiation, % (test concentration not listed); hit rate 0.23% among 360,000; AID 624464; active = potentiation of 50% or more; inconclusive = 30% to 50%; inactive = 30% or less;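 also: compound concentration not given in the record; tested on top of an EC20 dose of dopamine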
Target sequence (P14416 whole entry, looked up): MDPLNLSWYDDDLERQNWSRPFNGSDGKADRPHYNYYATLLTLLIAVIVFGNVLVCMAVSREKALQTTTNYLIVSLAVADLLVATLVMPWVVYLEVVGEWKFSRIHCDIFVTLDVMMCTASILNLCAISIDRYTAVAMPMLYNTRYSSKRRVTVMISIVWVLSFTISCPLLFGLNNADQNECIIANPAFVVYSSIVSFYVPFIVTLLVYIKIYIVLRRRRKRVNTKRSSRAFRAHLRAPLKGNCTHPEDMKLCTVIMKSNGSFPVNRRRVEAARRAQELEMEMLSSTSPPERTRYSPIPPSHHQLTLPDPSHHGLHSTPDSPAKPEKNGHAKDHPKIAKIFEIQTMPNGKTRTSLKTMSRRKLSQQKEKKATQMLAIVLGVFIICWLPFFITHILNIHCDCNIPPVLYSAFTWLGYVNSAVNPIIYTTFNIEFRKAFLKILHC
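PathHunter beta-arrestin assay in DiscoveRx D2 cells. Compounds were added with an EC20 of dopamine (50 nM final) for 90 min at 37 deg C. Luminescence was read 1 h after detection reagent, with 57 uM dopamine as the EC100 control.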
TRPML1 agonist: human mucolipin-1 channel agonism. TRPML1-expressing cells, Ca2+ dye fluorescence, FDSS; host cell line not named in the record; reference of the full effect not given here. activation, % (test concentration not listed). hit rate 0.12% among 410,000; in the data active = activation above about 50%; inconclusive = about 30% to 50%; inactive = below about 30%; also: 0% is about no effect; the text of the record puts the active cut at 80%
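TRPML1-DL cells, Tet-induced overnight (~16 h, 37 degrees C), loaded 45-90 min at room temperature with Ca8 no-wash calcium dye plus quencher. FDSS fluorescence: 10 s baseline, compound pin-transfer, 110 s agonist read, then EC80 54-4 (4uM final) and 110 s antagonist read.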
TRPV1 potentiator: human TRPV1 potentiation; Q8NER1; TRPV1-expressing cells, Fluo-8 calcium influx, capsaicin EC20 potentiation; host cell line not named in the record; control for the full effect not named in the record; potentiation, % at 8.33 µM; hit rate 0.02% among 320,000; active means potentiation above 80%; inconclusive means 30% to 80%; inactive means below 30%; also: 0% is about no effect
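Fluo-8 calcium influx in TRPV1-expressing cells, kinetic read (ex 480/em 520 nm). Compound added and read 3 min for agonist activity, followed by capsaicin at EC20 final and 2 min further read for enhancement.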
* = called active by the depositor; ? = inconclusive; . = not tested or not shown; & = joins results of further samples.

SMILES	Six1-Eya2 inh	TRPML1 blocker	CtBP-E1A blk	D2 PAM	TRPML1 agonist	TRPV1 potentiator
Cc1cc(C)cc(N2CN=c3s/c(=C\c4ccco4)c(=O)n3C2)c1	2	2	0	4	0.5	-4
Cc1cc(C)c(C(=O)NCC2CCCO2)c(C)c1C(=O)NCC1CCCO1 (stereo not drawn)	0	-3	.	-3	1.0	10
Cc1ccc(C(=O)NC(C)C(c2cccs2)N2CCOCC2)cc1C (stereo not drawn)	3	-6	-2	-22	-0.9	.
CCN(CC(=O)Nc1ccc(NC(C)=O)cc1)C(=O)c1cc2ccccc2oc1=O	1	35	7	3	-0.1	-12
Cc1ccc2c(c1)nnn2C1CCN(S(=O)(=O)c2cccc(S(=O)(=O)N(C)C)c2)CC1	-4	15	-2	-6	-0.7	?
Cc1cc(C)cc(OCC(=O)Nc2cc(NC(=O)COc3cc(C)cc(C)c3)cc(C(=O)O)c2)c1	-5	32	3	8	0.5	10
Clc1ccc(Cc2ccc(Cl)nn2)c(Cl)c1	6	-10	6	-3	-0.7	5
Cc1cccc(NC(=S)NNC(=O)c2ccc(Br)o2)c1	-1	16	-6	-4	1.1	15
CCCNC(=O)COc1coc(CN2CCN(c3ccccc3)CC2)cc1=O	3	29	.	-4	2.0	12
COc1cc(C)nc(N2CCC(C(=O)NC3CCCCC3)CC2)n1	2	4	1	-12	-0.4	22
Cc1cccc(OCC(O)Cn2ccnc2C)c1 (stereo not drawn)	13	-7	.	-3	-0.8	2
COc1ccc2cc(C)c(SCC(=O)Nc3cc(C)on3)nc2c1	2	-8	10	-20	-0.3	16
Nc1c([N+](=O)[O-])c(=O)sc2ccccc12	-6	8	-17	-16	0.9	3
Cn1cccc1Cc1nnc(SCC(=O)Nc2cccc(Cl)c2)n1-c1ccc(F)cc1	-16	3	-5	-16&-10	1.0	-1
Cc1c(NC(=S)N/N=C\c2ccccc2O)c(=O)n(-c2ccccc2)n1C	-90*	1	32	-14	-0.4	2
COC(=O)C(NC(=O)CCc1c(C)nc2ncnn2c1C)C(C)C (stereo not drawn)	6	24	4	4	0.6	-1
COc1cccc(/C=C/C(=O)OCC(=O)Nc2ccc3c(c2)OCO3)c1	-10	16	-2	-11	-0.5	.
COc1cccc(NC(=O)Nc2cccn(Cc3ccccc3)c2=O)c1	-16	43	-4	9	2.4	-6
CCc1nnc(NC(=O)CSc2nnc(C3CC3)n2C)s1	5	-8	0	-13	0.0	12
O=C(CNC(=O)c1ccccc1)OC(C(=O)Nc1cc(C(F)(F)F)ccc1Cl)c1ccccc1 (stereo not drawn)	8	-18	-1	-29	0.0&-0.5&3.8	-9
CCOc1ccc(S(=O)(=O)N2CCC(C(=O)N3CCCC3)CC2)cc1C	5	11	-1	-7	0.4	-3
COc1cccc(-c2nnn(CC(=O)NC3CCCC3)n2)c1OC	4	10	2	-13	-1.3	-8
Cc1cc(C)n(-c2nc(C)nc3c2cnn3-c2ccccc2)n1	10	9	0	6	0.5	-7
COc1ccc(CCNC(=O)COc2ccc(-c3ccc(C)cc3)cc2)cc1OC	-1	-3	2	9	0.4	3
CC(C)Cc1nnc(NS(=O)(=O)c2ccc([N+](=O)[O-])cc2)s1	9	8	0	10	-0.1	-1
Cc1cc(C(=O)CSc2ccc(Cl)cc2)cc(C)c1OC(=S)N(C)C	12	10	-3	-4	1.4	30
COc1ccc(C)cc1-n1c(SCC(=O)NCC2CCCO2)nc2c([nH]c3ccccc32)c1=O (stereo not drawn)	3	-8	-5	25	0.1	9
Cc1ccc2c(COC(=O)c3n[nH]c4ccccc34)cc(=O)oc2c1	6	-8	-1	-4	1.0	-1
CC(C)(C)c1ccc(C(=O)Nc2cccc(-n3cnnn3)c2)cc1	-1	8	.	2	0.1	-1
CC(=NNC(=O)c1ccncc1)c1ccc(Cl)cc1Cl	1	4	2	5	0.5	.
COc1ccc(C2=CC(=O)CC(C)(C)C2)cc1OC	-11	6	5	-9	-0.6	3
Cn1c(SCC(=O)OC2CCCCC2)nnc1-c1ccc2c(c1)OCO2	1	16	-18	-9	0.0	29
O=C(COC(=O)Cc1ccc2c(c1)OCCO2)Nc1ccc(S(=O)(=O)N2CCCC2)cc1	-6	7	-1	-2	-0.1	7
CCc1ccc(NC(=O)CCNS(=O)(=O)c2cccc3nonc23)cc1	-17	-5	-4	-2	0.6	3
Cc1c(C(=O)N2c3ccccc3CC2C)oc2ccccc12 (stereo not drawn)	18	39	30	12	1.9	-8
O=C(C1CCCN(S(=O)(=O)c2cccc3nsnc23)C1)N1CCc2ccccc21 (stereo not drawn)	-16	-2	-14	0	-0.6	20
CCOC(=O)c1c(NC(=S)Nc2ccc(OC)cc2)sc2c1CCCCC2	0	-1	-5	-12	0.7	-9
CCOC(=O)c1c(NC(=O)c2ccc(Cl)s2)sc(C)c1C	3	3	8	-4	0.0	0
O=C(NC1CCCCC1)c1ccc(CS(=O)(=O)c2ccc(Cl)cc2)o1	4	-16	.	-9	2.2	16
O=C(Nc1nnc(COc2ccccc2F)s1)Nc1ccccc1F	-3	?	1	3	2.3	10
Cc1ccc(CCNC(=O)C23C[C@H]4C[C@@H](C2)CC(n2nnc(C)n2)(C4)C3)cc1	9	19	3	-5	-0.8	-16
CCOC(=O)Cc1csc(NC(=O)c2cc3ccccc3o2)n1	-4	0	3	-2	-0.6	-4
O=C1NN(c2ccccc2)C(=O)/C1=C\c1ccccc1OCC(=O)N1CCOCC1	0	-1	6	-11	-0.1	-9
O=c1[nH]c2ccccc2n1CCCSc1cnc2ccccc2n1	-14	-11	-11	-8	-1.4	6
Cc1ccc(C(=O)NNC(=O)c2csc(N3CCOCC3)n2)o1	0	-9	1	-16	0.0	-17
CCCCN=C1NC(=O)C(CC(=O)NCCc2ccc(OC)cc2)S1 (stereo not drawn)	-6	8	.	2	-0.8	1
CC(C)OC(=O)c1nnc(Cc2ccc(Cl)cc2)o1	5	50	5	2	0.3	-12
O=C(Cn1cnc2cc([N+](=O)[O-])ccc2c1=O)NCc1ccccc1	-30	-6	8	9	-0.6	-7
CC(C)CN(C(=O)COC(=O)c1ccc(Br)cc1)c1c(N)n(Cc2ccccc2)c(=O)[nH]c1=O	2	-11	-14	-4	1.1	1
CCC1CCCCN1C(=O)COc1ccc(F)cc1 (stereo not drawn)	5	4	0	-5	-0.2	3
CCCC/C=C1/CCC(CN(C)C)C1=O (stereo not drawn)	2	0	?	-13	0.0	.
CC(C)CC1NC(=O)N(CC(=O)Nc2cc(F)ccc2F)C1=O (stereo not drawn)	4	16	8	-2	0.5	4
CCCCNC(=O)c1ccc(-n2c(=S)[nH]c3ccccc3c2=O)cc1	1	20	6	1	-0.1	-4
O=C(O)C1=C(C2CCCCC2)C(=O)c2ccccc21	25	18	-15	-18	0.7	.
CC1=CC(C)(C)[N+](C)(C)c2ccc(C)cc21	1	9	5	-6	-0.2	-2
Cc1cc(C)n(-c2nnc3n2N=C(c2ccccc2)CS3)n1	0	-7	7	-5	0.2	-28
CCCn1nc(C(=O)OCC(=O)Nc2ccc(C(N)=O)cc2)c2ccccc2c1=O	1	21	-2	29	2.5	.
COc1ccc2sc(-c3ccc(N(C)C)cc3)c(C#Cc3cncn3C)c2c1	3	56	.	-15	1.7	.
O=C(CC(Cc1ccccc1)c1ccco1)NCc1ccco1 (stereo not drawn)	-4	22	-10	-5	1.8	-20
CCN(CC(=O)Nc1ccc(OC)cc1)C(=O)CCS(=O)(=O)c1ccc(C)cc1	3	12	6	-9	0.3	3

Of the compounds above, 5 contain an NH in an aromatic ring:
SMILES	Six1-Eya2 inh	TRPML1 blocker	CtBP-E1A blk	D2 PAM	TRPML1 agonist	TRPV1 potentiator
COc1ccc(C)cc1-n1c(SCC(=O)NCC2CCCO2)nc2c([nH]c3ccccc32)c1=O (stereo not drawn)	3	-8	-5	25	0.1	9
Cc1ccc2c(COC(=O)c3n[nH]c4ccccc34)cc(=O)oc2c1	6	-8	-1	-4	1.0	-1
O=c1[nH]c2ccccc2n1CCCSc1cnc2ccccc2n1	-14	-11	-11	-8	-1.4	6
CC(C)CN(C(=O)COC(=O)c1ccc(Br)cc1)c1c(N)n(Cc2ccccc2)c(=O)[nH]c1=O	2	-11	-14	-4	1.1	1
CCCCNC(=O)c1ccc(-n2c(=S)[nH]c3ccccc3c2=O)cc1	1	20	6	1	-0.1	-4

Not a retest: 4 of the compounds above.
SMILES	Six1-Eya2 inh	TRPML1 blocker	CtBP-E1A blk	D2 PAM	TRPML1 agonist	TRPV1 potentiator
Cc1cc(C)cc(N2CN=c3s/c(=C\c4ccco4)c(=O)n3C2)c1	2	2	0	4	0.5	-4
Cc1cc(C)c(C(=O)NCC2CCCO2)c(C)c1C(=O)NCC1CCCO1 (stereo not drawn)	0	-3	.	-3	1.0	10
Cc1ccc(C(=O)NC(C)C(c2cccs2)N2CCOCC2)cc1C (stereo not drawn)	3	-6	-2	-22	-0.9	.
CCN(CC(=O)Nc1ccc(NC(C)=O)cc1)C(=O)c1cc2ccccc2oc1=O	1	35	7	3	-0.1	-12

More structures follow.
SMILES	Six1-Eya2 inh	TRPML1 blocker	CtBP-E1A blk	D2 PAM	TRPML1 agonist	TRPV1 potentiator
Cc1cccc(NC(=O)N2CCCc3ccccc32)c1C	4	1	5	8	-0.7	2
Cc1ccc(C[n+]2cc(-c3ccc(Cl)cc3)n3c2CCC3)cc1	0	22	2	-16	-0.1	7
CCNC(=O)c1cccc(NC(=O)c2cc(C3CC3)nc3c2cnn3C(C)C)c1	-2	0	3	6	2.4	14
COc1ccccc1CNC(=O)CCc1nc2ccccc2c(=O)[nH]1	0	16	2	-10	-0.2	-12
COc1ccc(C2CC2/C(=N/O)c2ccccn2)cc1 (stereo not drawn)	-18	2	-11	-2	0.7	-40
CCOC(=O)c1c(NC(=O)COC(=O)Cc2n[nH]c(=O)c3ccccc23)sc(C(=O)N(C)C)c1C	-7	-5	1	8	1.1	-9
O=C(O)c1ccc(CSc2nnc(-c3cccnc3)n2-c2ccc(Br)cc2)cc1	2	-9	-15	0	0.6	13
O=C1CCN(Cc2ccccc2)CCN1CCSc1ccccc1	-3	-11	4	-15	-0.2&0.5	-2
CCOc1ccccc1NC1=C(Cl)C(=O)N(Cc2ccccc2)C1=O	-22	44	-18	-4	1.4	3
C=CCC(CC)C(=O)NC(=O)N1CCCc2ccccc21 (stereo not drawn)	7	-10	10	-2	1.3	8
COc1ccc(NC(=O)C(NC(C)=O)C(=O)Nc2ccc(F)cc2)cc1 (stereo not drawn)	0	-14	.	-8	1.2	2
CN(C)C(=O)c1ccc(N=Nc2c(O)c3ccccc3[nH]c2=O)cc1	-19	27	-19	-1	0.1	.
CN(C)C(=O)c1c([N+](=O)[O-])ncn1C	1	-16	3	-1	0.3	29
COc1cc(CN2CCCN(C)CC2)cc([N+](=O)[O-])c1O	7	-9	15	-11	0.3	0
CN(C(=O)CC1C(=O)NCCN1Cc1ccccc1F)C1CCOCC1 (stereo not drawn)	9	-9	-6	19	0.2	-2
CCCS(=O)(=O)N1CCCC(C(=O)NCCN(CC)c2ccccc2)C1 (stereo not drawn)	0	-13	0	-15	-1.3	-12
N#CCCn1cc(C(CC(=O)c2ccc(Br)cc2)C(=O)O)c2ccccc21 (stereo not drawn)	-4	-6	1	-2	-0.6	.
O=C(c1ccc([N+](=O)[O-])o1)N1CCCCCC1	6	30	-4	0	0.6	.
Cc1cccc(C)c1NC(=O)CN(C1CCCCC1)S(C)(=O)=O	0	9	-2	-6	-1.0	-3

Compound activity as filed in PubChem.
